Assay outcomes deposited in PubChem by Southern Research Institute.
Mtb H37Rv: Mycobacterium tuberculosis H37Rv growth inhibition, cell based, confirmatory dose response (AID 1949). M. tuberculosis H37Rv growth inhibition. most inactive calls were filed without a number and no value below 0 was filed. one-dose inhibition, % at 10 µg/mL; IC50 in µg/mL for titrated hits. hit rate 1.6% among 100,000;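 active = confirmed in a dose series; inconclusive = about 50% or more but not retested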;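 also: bacteria grown 7 days with compound before Alamar blue readout; 0% = untreated bacteria and 100% = reference antibiotic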
* = called active by the depositor; i = inactive; ? = inconclusive.

| Compound | Mtb H37Rv |
| --- | --- |
| CCCOc1ccc(CC(=O)Nc2sc3c(c2C#N)CC(C)(C)OC3)cc1 | i |
| CN1CCN(C(=O)c2cnn(-c3ccccc3)c2NC(=O)c2cccs2)CC1 | i |
| COc1ccc2cc(Br)ccc2c1CC(=O)Nc1ccc(C(C)=O)cc1 | i |
| Cc1cc(C)cc(OCC(=O)Nc2sc3c(c2C(N)=O)CCCC3)c1 | i |
| CCC(C)C(NC(=O)c1cc(C)oc1C)C(=O)O (stereo not drawn) | i |
| Cc1cc(C)c(S(=O)(=O)ON2C(=O)c3ccccc3C2=O)cc1C | i |
| COc1ccc(Cl)cc1NC(=O)NCc1ccc2c(c1)OCO2 | i |
| Cc1cc(N2CCCC2=O)cc(C)c1CN1C(=O)c2ccccc2C1=O | i |
| Cc1nc2cc(NC(=O)N3CCN(c4ccccc4)CC3)ccc2o1 | i |
| CSc1cccc(NS(=O)(=O)c2ccc(Cl)cc2)c1 | i |
| O=C(CCCOc1ccccc1)N1CCN(c2ccccn2)CC1 | i |
| CC(C)Cc1nnc(NC(=O)CSc2nc(O)c(-c3ccccc3)c(=O)[nH]2)s1 | ? |
| O=Cc1ccc(SCCO)c([N+](=O)[O-])c1 | i |
| COc1cc(C(=S)N2CCOCC2)cc(OC)c1OC(=O)c1cccc(Cl)c1 | i |
| CCc1ccc(NC(=O)CN(c2ccccc2Br)S(C)(=O)=O)cc1 | i |
| Nc1nc(N2C(=O)c3ccccc3C2=O)nn1-c1ccccc1 | i |
| COc1ccc(NC(=S)Nc2ccc(Cl)cc2Cl)c(C)c1 | i |
| NS(=O)(=O)c1ccc(Nc2nnc(-c3ccc(O)cc3)c3ccccc23)cc1 | i |
| Cc1ccc(OCCNC2CCCC2)c(Cl)c1 | i |
| COc1ccc(CSc2nnc(-c3cccc(OC)c3)n2-c2ccccc2)cc1 | i |
| CCn1c(SCC(=O)Nc2nc(-c3ccc(C)cc3)cs2)nnc1-c1ccccc1Cl | 8% |
| CC1(C)CC(=O)C2=C(C1)Nc1ccccc1NC2c1ccc(O)cc1O (stereo not drawn) | i |
| CCCSc1nnc2[nH]c(=O)cc(N)n12 | i |
| O=C(Nc1cccnc1)c1ccc(I)cc1 | i |
| O=C(CCc1ccccc1)Oc1ccc(C(=O)Nc2ccc(Cl)cc2)cc1 | 0% |
| Cc1ccc(-c2ccc(C(=O)NC(=S)Nc3ccc(Cl)c(C(=O)O)c3)o2)cc1Cl | i |
| COC(=O)c1ccccc1-c1ccc(NC(=O)C2C3CC4OC(=O)C2C4C3)cc1 (stereo not drawn) | i |
| COc1ccc(Cl)cc1NC(=O)CN(C)S(=O)(=O)c1ccc(Cl)cc1 | i |
| CCCC(=O)NCc1nc2ccccc2n1Cc1ccc(Cl)cc1Cl | i |
| Cc1cc2c(cc1C)NC(c1ccncc1)C1=C(CC(C)(C)CC1=O)N2 (stereo not drawn) | i |
| COc1cc(S(=O)(=O)N2CCN=C2c2ccccc2)c(OC)cc1Cl | i |
| Cc1onc(-c2ccccc2)c1C(=O)N1CCCC1C(=O)O (stereo not drawn) | i |
| Cc1ccc(C(N)=O)cc1S(=O)(=O)N1CCOCC1 | i |
| COCCCNCCOc1cc(C)cc(C(C)C)c1 | i |
| COC(=O)COc1ccc2c(=O)c(Oc3ccccc3F)c(C)oc2c1C | 6.5µg/mL* |
| O=C(O)CN(Cc1ccccc1)S(=O)(=O)c1ccc2c(c1)OCCO2 | i |
| COc1cc2c(cc1OC)C(C)N(C(=O)c1cccc(Br)c1)CC2 (stereo not drawn) | 1% |
| O=C(CSc1nnc(-c2ccncc2)o1)NCc1ccccc1 | i |
| CC(C)Sc1nc2c(c(=O)[nH]1)C(c1cccnc1)C1=C(CCCC1=O)N2 (stereo not drawn) | i |
| O=C(OCc1nnc(-c2ccccc2)o1)c1cc(-c2cccs2)nc2ccccc12 | 3µg/mL* |
| COC(=O)C1=C(c2ccccc2)Nc2ncnn2C1c1ccccc1 (stereo not drawn) | 0% |
| CCC(Sc1nnc2c3ccccc3n(C)c2n1)C(=O)Nc1sc2c(c1C#N)CCCC2 (stereo not drawn) | i |
| S=C(NNc1c(Cl)cc(Cl)cc1Cl)Nc1cccnc1 | 29% |
| Clc1ccccc1-c1ccc(-c2nn3c(Cc4ccccc4)nnc3s2)o1 | i |
| CCOc1ccc(N(CC(=O)OC)S(C)(=O)=O)cc1 | 0% |
| Cc1ccc(-c2nnc(SCC(=O)N3CCN(c4cccc(Cl)c4)CC3)n2C)cc1 | i |
| O=C(NCCNc1ccc([N+](=O)[O-])cc1C(F)(F)F)c1cccc(F)c1 | 5% |
| CN1CCN(C(=O)C2CCN(CCCc3ccccc3)CC2)CC1 | i |
| Cc1cccc(C(=O)Nc2nnc(SCC(=O)c3ccc4c(c3)Cc3ccccc3-4)s2)c1 | 1% |
| CC(C)(C)C(=O)c1cn(CC(=O)Nc2ccccc2)c2ccccc12 | 1% |

Next part
| Compound | Mtb H37Rv |
| --- | --- |
| CCOc1ccccc1OCCCN1CCOCC1 | i |
| CC(=O)Nc1ccc(NC(=O)CCSc2ccc(Cl)cc2)cc1 | 3% |
| Cc1cccc(-c2nnc(SCC(=O)c3ccc(Br)cc3)n2C)c1 | i |
| CCOc1cc(C(=O)Nc2cnccn2)cc(OCC)c1OCC | i |
| COc1cc(C2c3c(oc4ccccc4c3=O)C(=O)N2c2nnc(C)s2)ccc1OCc1ccccc1 (stereo not drawn) | i |
| O=C(N/N=C/c1ccc(O)cc1O)c1cc(-c2ccc3ccccc3c2)n[nH]1 | i |
| CCOC(=O)c1c(C)n(C)c2ccc(OCC(O)Cn3nc(C)cc3C)cc12 (stereo not drawn) | 1% |
| COc1ccc(-c2nc(SCC(=O)N3c4ccccc4Sc4ccccc43)n[nH]2)cc1 | ? |
| CCn1c(COc2cccc(C)c2)nnc1SCC(=O)NC1CCCC1 | i |
| CCCCN1C(=O)C(=O)c2cc(Br)ccc21 | 9.2µg/mL* |
| COc1cc(C2NC(=O)NC(C)=C2C(C)=O)cc(Br)c1OCc1ccccc1 (stereo not drawn) | 3% |
| Cc1ccc(-c2noc(CNc3cccc(Cl)c3)n2)cc1 | 14µg/mL* |
| O=C(CSc1n[nH]c(-c2ccccc2)n1)Nc1ccccc1Cl | i |
| COc1ccc2nc(NCc3ccccc3)[nH]c2c1 | i |
| COC(=O)c1c(NC(=O)c2ccc(Br)o2)sc2c1CCC(C)C2 (stereo not drawn) | i |
| CCc1cccc(C)c1NC(=O)CSc1nnc(-c2ccccc2)n1CCOC | i |
| CC1CN(C(=S)Nc2ccc(F)cc2F)CC(C)O1 (stereo not drawn) | i |
| O=C(CN1CCCCC1)NC1C2CC3CC(C2)CC1C3 (stereo not drawn) | i |
| C=CCN(CC=C)C(=S)Nc1sc(C)c(C)c1C(=O)OC | i |
| Cc1ccc(NC(=O)C2CCN(S(C)(=O)=O)CC2)cc1Cl | i |
| COc1cc2[nH]c(=O)n(C3CCCCC3)c(=O)c2cc1OC | i |
| CCN(CC)c1ccc(NC(=O)COc2ccc(C)cc2C)c(C)c1 | i |
| CC(=O)c1cccc(-n2c(CCC(=O)O)ccc2-c2cccs2)c1 | i |
| CC1(C)Cc2nc3sc4c(=O)n(CC(=O)c5ccccc5)cnc4c3cc2CO1 | 0% |
| Cc1cccc(CSc2n[nH]c(N)n2)c1 | i |

A run of entries taken from the entries so far, for reference:
| Compound | Mtb H37Rv |
| --- | --- |
| COc1ccc(NC(=S)Nc2ccc(Cl)cc2Cl)c(C)c1 | i |
| NS(=O)(=O)c1ccc(Nc2nnc(-c3ccc(O)cc3)c3ccccc23)cc1 | i |
| Cc1ccc(OCCNC2CCCC2)c(Cl)c1 | i |
| COc1ccc(CSc2nnc(-c3cccc(OC)c3)n2-c2ccccc2)cc1 | i |

The results go on.
| Compound | Mtb H37Rv |
| --- | --- |
| Cc1ccc(OCC(=O)Nc2ccc3ccccc3c2)cc1C | 9% |
| Cc1cc(C(=O)Nc2sc3c(c2C(N)=O)CCC(C)C3)ccc1[N+](=O)[O-] (stereo not drawn) | i |
| Cc1cc(Cl)ccc1OCC(=O)Nc1ccc(S(=O)(=O)N2CCOCC2)cc1 | i |
| CC1CCCCN1S(=O)(=O)c1ccc(NC(=O)c2ccc(Cl)cc2Cl)cc1 (stereo not drawn) | i |
| CC(=O)N1c2ccccc2CCc2cc(NS(=O)(=O)c3ccc4ccccc4c3)ccc21 | i |
| Cc1cc(C(=O)NN2CCOCC2)c(C)o1 | i |
| Cc1onc(-c2ccccc2Cl)c1C(=O)NC(=S)Nc1ccccc1F | i |
| O=C(Cc1cccs1)Nc1cccc(-c2nc3ccccc3o2)c1 | 2% |
| CC(C)(C)c1ccc(C(=O)Nc2ccc(S(=O)(=O)N3CCOCC3)cc2)cc1Br | i |
| COc1cccc2c1NC(C)(C)C=C2C | i |
| Cc1cccc(NC(=O)c2sc3nc4c(cc3c2N)CCCC4)c1C | i |
| CC1(C)C(=O)C2(C(=O)O)CCC1C2 (stereo not drawn) | i |
| Cn1c(=O)[nH]c(=O)c2[nH]c(Cc3ccccc3)nc21 | 1% |
| CCCN1CCN(C(=S)NCCc2ccc(OC)c(OC)c2)CC1 | i |
| CCC(CC)C(=O)Nc1nc(C)cs1 | i |
| Cc1ccc([N+](=O)[O-])cc1NC(=O)Nc1cccc(Cl)c1 | 0.21µg/mL* |
| CCOc1ccccc1NC(=O)c1cc(I)ccc1NC(=O)c1ccco1 | i |
| Cc1ccccc1N1C(=O)C2C3C=CC(c4ccc(Br)cc4)(C2C1=O)C1C(=O)N(c2ccccc2C)C(=O)C31 (stereo not drawn) | i |
| O=C(NC(=S)Nc1c(F)cc(F)cc1Br)C(c1ccccc1)c1ccccc1 | i |
| O=C(Cc1ccc(Cl)cc1)Nc1nc2ccc(Cl)cc2s1 | 3.2µg/mL* |
| Cn1cnc(SCC(=O)N2c3ccccc3Sc3ccccc32)n1 | 0% |
| CC(C)N1CC(C(=O)Nc2ccc(Br)c(Cl)c2)CC1=O (stereo not drawn) | i |
| O=C(Nc1ccccc1F)c1ccc(CSCc2ccccc2)cc1 | i |
| CCC(C)N(C(=O)c1cccc([N+](=O)[O-])c1)C(C)CC (stereo not drawn) | i |
| CCOc1ccc(C(=O)Nc2nc3c(Cl)cccc3s2)cc1Br | i |

Of the compounds above, these contain a tert-butyl group:
| Compound | Mtb H37Rv |
| --- | --- |
| CC(C)(C)C(=O)c1cn(CC(=O)Nc2ccccc2)c2ccccc12 | 1% |
| CC(C)(C)c1ccc(C(=O)Nc2ccc(S(=O)(=O)N3CCOCC3)cc2)cc1Br | i |

The list continues.
| Compound | Mtb H37Rv |
| --- | --- |
| COc1ccc(NC(=S)Nc2cc(C(F)(F)F)ccc2F)cc1 | i |
| O=C(NC(=S)Nc1ccc(N2CCCC2)c(Cl)c1)c1ccccc1F | i |
| Cc1c(NC(=O)c2ccc(Br)o2)c(=O)n(-c2ccccc2)n1C | i |
| COc1ccc(-c2cc(C(F)(F)F)[nH]n2)cc1 | 1% |
| O=C(NCc1ccco1)C(=O)Nc1ccc(F)cc1F | 8% |
| COc1cccc(C(=O)NC(c2ccccc2)c2ccc(Br)cc2)c1 (stereo not drawn) | 2% |
| COc1ccccc1-n1nnnc1SCC(=O)Nc1ccccc1F | i |
| O=C(Nc1cccc([N+](=O)[O-])c1)C(=O)N1CCCCC1 | 2% |
| Oc1ccccc1-c1csc(N2CCc3ccccc32)n1 | 3% |
| COc1ccc(OC)c(NS(=O)(=O)c2ccc(NC(=O)CCSc3ccc(C)cc3)cc2)c1 | i |
| CCOC(=O)N1CCN(C(=O)CN(c2ccc(F)cc2)S(C)(=O)=O)CC1 | i |
| CCC(=O)Nc1cccc(NC(=O)COc2c(C)cc(C)cc2Br)c1 | 23% |
| C=CCn1c(SCC(=O)Nc2ccc(OCC)cc2)nnc1-c1ccccc1O | i |
| COc1ccc(C(=O)Oc2ccc(Br)cc2C(=S)N2CCCC2)cc1OC | i |
| CN(CC(=O)Nc1ccccc1C(F)(F)F)S(=O)(=O)c1ccccc1 | 0% |
| COC(=O)c1ccccc1NC(=O)N1CCCCCC1 | 0% |
| O=C(O)COc1ccc(Cl)cc1[N+](=O)[O-] | i |
| COC(=O)N1CCN(c2ccc(Cl)c(Cl)c2)CC1 | 3% |
| O=C(CSc1c(-c2ccccc2)c2cc(Cl)ccc2[nH]c1=O)Nc1ccc(Br)cc1 | i |
| Cc1cc(NC(=O)c2nn3cccnc3c2Cl)no1 | i |
| Cc1cc(NC(=O)CSc2nc(-c3ccco3)cc(C(F)(F)F)n2)no1 | i |
| COc1ccc(OC)c(NC(=O)CSc2nc(C)cc(=O)[nH]2)c1 | i |
| O=C(Cn1nc(C(F)(F)F)c2c1CCCC2)NCc1cccs1 | i |
| CCOc1ccccc1NC(=O)COc1ccc(I)cc1 | i |
| COc1ccccc1NC(=O)C1CCN(S(=O)(=O)c2ccc(Br)cc2)CC1 | i |
| CCOC(=O)Cc1c(C)nc2cc(-c3ccc(Br)cc3)[nH]n2c1=O | i |
| CC(=O)c1ccc(NC(=O)CSC2=NCCS2)cc1 | i |
| CCC(=O)Nc1ccc(N2CCCCC2)cc1 | 2% |
| O=C(Oc1cccc(NC(=O)c2cccs2)c1)c1ccc(Br)c(S(=O)(=O)N2CCCCC2)c1 | i |
| CCOC(=O)c1nc(NNC(C)=O)sc1C | 0% |
| CCOc1ccc(C(=O)Nc2cccc3ncccc23)cc1Cl | i |
| CCN(CC)c1ccc(NS(=O)(=O)c2cc(C(=O)O)ccc2OC)cc1 | i |
| CCCCC(=O)Nc1cccc(NC(=O)COc2cccc3ccccc23)c1 | 1% |
| CCN1CCN(CCOCCOc2ccccc2Br)CC1 | i |
| COc1ccc(OCC(=O)N2CC3(C)CC2CC(C)(C)C3)cc1 (stereo not drawn) | i |
| c1ccc2c(c1)nc1n2CN(Cc2ccc3c(c2)OCO3)CN1 | i |
| CC1CCc2c(sc(NC(=O)c3ccccc3F)c2C(=O)Nc2ccc(N(C)C)cc2)C1 (stereo not drawn) | i |
| CC(=O)NCCc1nc2ccccc2n1Cc1ccccc1 | i |
| C=CCNC(=S)Nc1ccn(Cc2ccccc2C)n1 | 0% |
| Cc1nc(SCC(=O)Nc2ccc(OCc3ccccc3)cc2)n[nH]1 | i |
| COc1ccc(CN2CCC(N3CCCC3)CC2)cc1 | 0% |
| CC(=O)Nc1ccc(NC(=O)c2ccc(Cl)cc2)cc1 | 0% |
| COc1cc(CO)cc(Cl)c1OCc1ccc(Cl)c(Cl)c1 | 49% |

This is a subset; the hit share may differ from the screen's.
